Source: PubChem
GIV Gai3 FP = inhibitors of GIV peptide binding to Galpha-i3, primary screen, biochemical, fluorescence polarization, FITC-GIV GBA peptide, rat Galphai3; Guanine nucleotide-binding protein G(i) subunit alpha-3 (Rattus norvegicus), P08753; 90 min; active compounds read low; scaled: aluminum fluoride 0%, vehicle 100%; percent of control (FP), % (no concentration beside the values); hit rate 0.42% among 210,000; AID 1224905, 2016;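 active = replicate mean at 85% of control or lower, very high polarization wells dropped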;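 note: wells of about 15 µL received 100 nL stock; the first replicate is given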
Target sequence (P08753 whole entry, looked up): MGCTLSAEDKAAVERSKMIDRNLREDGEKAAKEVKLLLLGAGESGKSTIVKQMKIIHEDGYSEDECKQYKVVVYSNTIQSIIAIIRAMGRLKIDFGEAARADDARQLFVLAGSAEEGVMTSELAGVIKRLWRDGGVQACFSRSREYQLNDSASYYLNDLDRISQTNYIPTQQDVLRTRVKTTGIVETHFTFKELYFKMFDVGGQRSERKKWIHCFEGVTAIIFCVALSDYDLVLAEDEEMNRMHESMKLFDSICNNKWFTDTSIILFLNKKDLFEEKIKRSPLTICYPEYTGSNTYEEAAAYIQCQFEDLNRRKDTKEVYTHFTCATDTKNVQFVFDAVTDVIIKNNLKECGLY
Numbers without * were called inactive. This is a subset; rates above refer to the full screens.

For COc1ccccc1-n1c(=O)n(Cc2cn3ccccc3n2)c(=O)c2c(C)cc(C)nc21 the results were GIV Gai3 FP 106.
CCn1cc(C)c(C(=O)O)c1CC(=O)Nc1cccnc1 was read as GIV Gai3 FP 98.
Screening CCOc1ccc(C2c3[nH]c4ccccc4c3CCN2C(=O)c2cccc(Br)c2)cc1 (stereo not drawn) returned GIV Gai3 FP 109.
`O=C(CCc1nc(CS(=O)(=O)c2ccc(F)cc2)no1)Nc1cc(F)ccc1F` gave GIV Gai3 FP 102.
For COc1ccc(N(C(=O)c2ccc(F)cc2)C2=CC3CCC(C2)N3C)cc1 (stereo not drawn) the results were GIV Gai3 FP 111.
CC(C)CCC1(C)NC(=S)N(c2ccc(Cl)cc2)N1 (stereo not drawn) was read as GIV Gai3 FP 106.
For O=C1CC(n2nc(Cc3ccccc3)n(-c3ccccc3)c2=S)C2COC1O2 (stereo not drawn) the results were GIV Gai3 FP 107.
Screening CCC(C)NC(=O)CCc1nc(N2CC(C)CC(C)C2)c2c(C)noc2n1 (stereo not drawn) returned GIV Gai3 FP 101.
`O=C1CCCC2=C1C(c1cccc(Br)c1)C1=C(CCCC1=O)N2` gave GIV Gai3 FP 107.
`CC(C)CCNS(=O)(=O)c1ccc2c(c1)Cc1cc(S(=O)(=O)NCCC(C)C)ccc1-2` gave GIV Gai3 FP 103.
For O=C(Nc1cccc2cccnc12)C1CCC1 the results were GIV Gai3 FP 107.
For CCOC(=O)c1c(C)oc2ccc(N(C(=O)c3ccncc3)S(=O)(=O)c3ccc4ccccc4c3)cc12 the results were GIV Gai3 FP 108.
COc1ccc(OC)c(CNC(=O)c2cccc(-c3cnc(NC4CCCCC4)nc3)c2)c1 was read as GIV Gai3 FP 110.
Screening Cc1cccc(-n2c(CNC(=O)c3ccc(S(=O)(=O)N(C)C)cc3)nnc2SCC(=O)Nc2nnc(C)s2)c1 returned GIV Gai3 FP 108.
`O=S(=O)(NCc1ccco1)c1ccc2c(c1)C(=NO)c1cc(S(=O)(=O)NCc3ccco3)ccc1-2` gave GIV Gai3 FP 108.
`CN(C)S(=O)(=O)N(CC(=O)NCCCN1CCN(c2ccc(F)cc2)CC1)c1ccc(F)cc1` gave GIV Gai3 FP 99.
Screening COc1ccc2[nH]c(=O)c3c(c2c1)OC(C)(C)C=C3 returned GIV Gai3 FP 105.
`CC(C)Sc1nnc2c(n1)[nH]c1ccccc12` gave GIV Gai3 FP 105.
Screening CN1CCN(CCNc2nc(C3CC3)nc3c2CCC3)CC1 returned GIV Gai3 FP 101.
`CCCCN(C)c1ccc2nnc(CCc3nc(-c4ccc(Cl)cc4)no3)n2n1` gave GIV Gai3 FP 101.
For CN1CCN(C(=O)c2ccc(NCc3ccccc3Cl)c(S(=O)(=O)Nc3cccc(C(F)(F)F)c3)c2)CC1 the results were GIV Gai3 FP 98.
Screening CCc1onc(C)c1C1CCCN1C(=O)c1cc(C(F)(F)F)nn1C (stereo not drawn) returned GIV Gai3 FP 94.
`CC(=O)c1c(C)oc2ccc(N(C(=O)c3ccccc3)S(=O)(=O)c3ccc(C)cc3)cc12` gave GIV Gai3 FP 113.
CCOC(=O)c1c(NC(=O)COc2ccccc2C)sc(C(=O)N2CCCC2)c1C was read as GIV Gai3 FP 106.
O=C(NCc1nc2cccnc2n1Cc1ccccc1)C1CC1 was read as GIV Gai3 FP 108.
CCOC(=O)C(=O)N1c2ccc(OC)cc2-c2c(ssc2=S)C1(C)C was read as GIV Gai3 FP 107.
O=C(NCc1nc(-c2ccc3c(c2)Sc2ccccc2C(=O)N3C2CCCC2)no1)c1ccccc1 was read as GIV Gai3 FP 102.
`c1cc(-c2noc(-c3cccc4[nH]ccc34)n2)cc(-c2ccn[nH]2)c1` gave GIV Gai3 FP 108.
`O=C(c1ccccc1)N1c2ccccc2N=C(c2ccc(I)cc2)CC1c1ccccc1` (stereo not drawn) gave GIV Gai3 FP 105.
O=C(C1CC1)N1CCc2cc(-c3csc(C4CC4)n3)ccc21 was read as GIV Gai3 FP 108.

Five entries already listed, arranged by count of non-hydrogen atoms, smallest number first.
O=C(C1CC1)N1CCc2cc(-c3csc(C4CC4)n3)ccc21 was read as GIV Gai3 FP 108.
`c1cc(-c2noc(-c3cccc4[nH]ccc34)n2)cc(-c2ccn[nH]2)c1` gave GIV Gai3 FP 108.
`O=C(c1ccccc1)N1c2ccccc2N=C(c2ccc(I)cc2)CC1c1ccccc1` (stereo not drawn) gave GIV Gai3 FP 105.
O=C(NCc1nc(-c2ccc3c(c2)Sc2ccccc2C(=O)N3C2CCCC2)no1)c1ccccc1 was read as GIV Gai3 FP 102.
For CN1CCN(C(=O)c2ccc(NCc3ccccc3Cl)c(S(=O)(=O)Nc3cccc(C(F)(F)F)c3)c2)CC1 the results were GIV Gai3 FP 98.

Returning to the listing; the 5 compounds before the break are reprinted first.
CCOC(=O)C(=O)N1c2ccc(OC)cc2-c2c(ssc2=S)C1(C)C was read as GIV Gai3 FP 107.
O=C(NCc1nc(-c2ccc3c(c2)Sc2ccccc2C(=O)N3C2CCCC2)no1)c1ccccc1 was read as GIV Gai3 FP 102.
`c1cc(-c2noc(-c3cccc4[nH]ccc34)n2)cc(-c2ccn[nH]2)c1` gave GIV Gai3 FP 108.
`O=C(c1ccccc1)N1c2ccccc2N=C(c2ccc(I)cc2)CC1c1ccccc1` (stereo not drawn) gave GIV Gai3 FP 105.
O=C(C1CC1)N1CCc2cc(-c3csc(C4CC4)n3)ccc21 was read as GIV Gai3 FP 108.
`CCOC(=O)CS(=O)(=O)c1cc2c(cc1NC(=O)C(C)(C)C)n(C)c(=O)c(=O)n2C` gave GIV Gai3 FP 98.
CCCCCOc1ccc(/C=c2\sc3nc(=O)c(C)nn3c2=O)cc1 was read as GIV Gai3 FP 112.
`CCC(C)NC(=O)c1nc(CCS(=O)(=O)c2ccccc2)no1` (stereo not drawn) gave GIV Gai3 FP 105.
`COc1ccc(Nc2cc(C)nc(Nc3ccc(NC(=O)C(C)C)cc3)n2)cc1` gave GIV Gai3 FP 109.
For COc1ccc(N2CC(c3nnc(NC(=O)CCC4CCCC4)o3)CC2=O)cc1 (stereo not drawn) the results were GIV Gai3 FP 104.
`CCC(=O)N1c2cc(C)c(C)cc2C(=C2SC(C(=O)OC)=C(C(=O)OC)S2)C(=S)C1(C)C` gave GIV Gai3 FP 108.
For Cc1ccccc1NC(=O)c1sc2nc3c(c(-c4ccco4)c2c1N)CCC3 the results were GIV Gai3 FP 99.
For Cc1noc(C)c1C1CCCN1C(=O)NCC(C)C (stereo not drawn) the results were GIV Gai3 FP 103.
Screening Cc1ccc2c(c1)-c1c(ssc1=S)C(C)(C)N2C(=O)c1ccccc1 returned GIV Gai3 FP 110.
For O=C1C2=C(Nc3ccccc3SC2c2ccccc2)c2ccccc21 (stereo not drawn) the results were GIV Gai3 FP 106.
Screening COC(=O)C1=C(C(=O)OC)SC(=C2C(=S)C(C)(C)Nc3cc(C)c(C)cc32)S1 returned GIV Gai3 FP 103.
For Cn1c(SCC(=O)NCc2ccccc2)nc2cc(-c3ccccc3)sc2c1=O the results were GIV Gai3 FP 101.
Screening COc1ccccc1-n1c(CNC(=O)c2ccc(S(=O)(=O)N(C)C)cc2)nnc1SCC(=O)Nc1cccc(C)c1 returned GIV Gai3 FP 111.
For NS(=O)(=O)c1ccc(CCn2c(-c3ccc(Cl)s3)csc2=Nc2ccc(OC(F)(F)F)cc2)cc1 the results were GIV Gai3 FP 108.
For O=C1CCCC2=C1C(c1cn[nH]c1-c1ccc(F)cc1)Nc1ccc3ccccc3c12 (stereo not drawn) the results were GIV Gai3 FP 107.
`CC(C)n1c(N2CCCN(C(=O)CCC(=O)N3CCOCC3)CC2)cc(=O)n(C(C)C)c1=O` gave GIV Gai3 FP 101.
For Fc1ccc(-c2nc3cc4ccccc4cc3nc2-c2ccc(F)cc2)cc1 the results were GIV Gai3 FP 103.
For COc1ccc(CCNC(=O)c2cc(S(=O)(=O)N3CCC4(CC3)OCCO4)ccc2F)cc1OC the results were GIV Gai3 FP 107.
For N#CC1=C(SCC(=O)Nc2ccc(Br)cc2)NC(=O)CC1c1ccc2c(c1)OCO2 (stereo not drawn) the results were GIV Gai3 FP 115.
For CC(C)NC(=O)CC1CCN(S(=O)(=O)c2ccc(Br)s2)CC1 the results were GIV Gai3 FP 107.
O=S(=O)(NC1CCCCC1)c1ccc(-c2ccno2)s1 was read as GIV Gai3 FP 98.
COc1ccc(CCNC(=O)CSc2nc3[nH]ncc3c(=O)n2-c2cccc(C(F)(F)F)c2)cc1OC was read as GIV Gai3 FP 105.
For Cn1nc(-c2nc(-c3ccccc3)no2)c2c1CCN(S(=O)(=O)c1cc(F)ccc1F)C2 the results were GIV Gai3 FP 99.
Screening CC1=NS(=O)(=O)c2cccnc2N1c1ccc(Br)cc1 returned GIV Gai3 FP 89.
For CCC(=O)NCc1nc2cccnc2n1CCOC the results were GIV Gai3 FP 107.
Screening O=C(NCc1cccnc1)c1cccn2c(=O)c3cc(Cl)ccc3nc12 returned GIV Gai3 FP 97.
Screening O=C(Nc1ccc(Br)cc1)c1cccc(Oc2cc(-c3ccccc3)ncn2)c1 returned GIV Gai3 FP 101.
COc1cc(OC)c(NC(=O)N2CCCC2c2c(C)noc2C)cc1Cl (stereo not drawn) was read as GIV Gai3 FP 105.
`CC(=O)c1ccc(N=Cc2c(C)[nH]n(-c3ccc(C)c(C)c3)c2=O)cc1` gave GIV Gai3 FP 111.
Screening COCC1=C(C(=O)OC)C(c2cccc(Cl)c2)C(C#N)=C(N)O1 (stereo not drawn) returned GIV Gai3 FP 105.
For CCOc1ccccc1C1Nc2c(C)cc(C)cc2[C@H]2OCCC[C@@H]12 (stereo partly drawn) the results were GIV Gai3 FP 100.
For CC(C)c1ccc(Nc2nc(N3CCOCC3)nc(N3CCOCC3)n2)cc1 the results were GIV Gai3 FP 102.
Brc1cn2c(Nc3ccc4c(c3)OCCO4)c(-c3ccccc3)nc2cn1 was read as GIV Gai3 FP 100.
`COc1cc(C2N(Cc3ccccc3)CCN2Cc2ccccc2)cc(OC)c1OC` gave GIV Gai3 FP 111.
Screening CCOc1cccc2c1OC(c1cccc(OC)c1OC)N1N=C(c3cccc(OC)c3)CC21 (stereo not drawn) returned GIV Gai3 FP 100.
Screening O=C1c2c(Cl)c(Cl)c(Cl)c(Cl)c2C(=O)N1C1C(=O)N(c2ccc(Br)cc2)C1c1cccs1 (stereo not drawn) returned GIV Gai3 FP 102.
Screening CCOC(=O)c1ccc(S(=O)(=O)Nn2c(SCC(=O)Nc3ccc(C)cc3)nc3ccccc3c2=O)cc1 returned GIV Gai3 FP 110.
For COc1ccc(CCNC(=O)Cn2c(=O)c3ccccc3n(C)c2=O)cc1OC the results were GIV Gai3 FP 107.
COc1ccc(/C=C/C23NC(=O)CN2c2ccccc2C3(C)C)cc1 (stereo not drawn) was read as GIV Gai3 FP 101.
For COC(=O)CN1C(=O)C2(C(C#N)=C(N)Oc3n[nH]c(-c4ccc(OC)c(OC)c4)c32)c2ccccc21 (stereo not drawn) the results were GIV Gai3 FP 115.
For CCCN1C(=O)/C(=C\c2nc3ccccc3c(=O)n2-c2ccc([N+](=O)[O-])cc2)c2ccccc21 the results were GIV Gai3 FP 107.
`COc1ccc(OC)c(-n2c(=S)[nH]c3cc(C(=O)NCCc4ccc(OC)c(OC)c4)ccc3c2=O)c1` gave GIV Gai3 FP 100.
Screening O=C(c1ccc(S(=O)(=O)c2ccccc2)cc1)N1c2ccccc2Sc2ccccc21 returned GIV Gai3 FP 101.
Screening CCOC(=O)C1CCN(C(=O)c2c[nH]c3ccc(S(=O)(=O)N(CC)c4cccc(C)c4)cc3c2=O)CC1 returned GIV Gai3 FP 104.
`c1ccc2c(c1)CC1(CCCCC1)N=C2N1CCOCC1` gave GIV Gai3 FP 109.
COc1ccc(Cl)cc1S(=O)(=O)N(Cc1ccco1)CC1CCCO1 (stereo not drawn) was read as GIV Gai3 FP 98.
`C#CCOc1ccc(C2CC(=O)Nc3c2c(C)nn3-c2nc3ccc(OCC)cc3s2)cc1` (stereo not drawn) gave GIV Gai3 FP 102.
For Cc1cccc[n+]1[C@@H]1[C@@H](c2ccc(Cl)cc2)C(C#N)=C([S-])N[C@]1(C)O the results were GIV Gai3 FP 106.
`O=C(c1ccc(F)cc1)N1CCc2cc(CNS(=O)(=O)Cc3ccccc3)ccc21` gave GIV Gai3 FP 106.
Screening O=C1Nc2cc(S(=O)(=O)N3CCc4ccccc43)ccc2SCC1CC(=O)N1CCCC1 (stereo not drawn) returned GIV Gai3 FP 124.
CCOC(=O)c1sc(NC(=O)C(C)Sc2nnc(CNC(=O)c3ccco3)n2-c2ccc(F)cc2)c(C(=O)OCC)c1C (stereo not drawn) was read as GIV Gai3 FP 99.
`CC1CCN(CCCNC(=O)c2cc3c(s2)CN(C2CC2)C3)CC1` gave GIV Gai3 FP 101.
For COc1cc(Cl)c(NS(=O)(=O)c2c(C)sc(C)c2-c2n[nH]c(C)c2C)c(OC)c1 the results were GIV Gai3 FP 101.
Cc1ccc(C2=Nc3cccnc3N(CC(=O)Nc3ccc4c(c3)OCCO4)C(=O)C2)cc1C was read as GIV Gai3 FP 102.
Screening CN1CCN(c2nc3c(c(=O)n(C)c(=O)n3C)n2CC(=O)c2ccc(Br)cc2)CC1 returned GIV Gai3 FP 108.
`O=C(CC1(O)C(=O)N(Cc2ccccc2Cl)c2ccccc21)c1cccs1` (stereo not drawn) gave GIV Gai3 FP 109.
CCOc1cc(C2CC(=O)Nc3c2c(C)nn3-c2ccc3nncn3n2)ccc1OCc1ccccc1 (stereo not drawn) was read as GIV Gai3 FP 99.
Screening COc1ccc(-c2cncc(C(=O)NCc3ccc4c(c3)OCO4)c2)cc1 returned GIV Gai3 FP 100.
Screening CCCCCCCCCOc1ccc(-c2ncc(CCCCCC)cn2)cc1 returned GIV Gai3 FP 107.
